High-throughput results: PubChem BioAssay, National Center for Advancing Translational Sciences (NCATS)
gsp antag: antagonists of gsp mutant (McCune-Albright syndrome) | gsp-mutant cells, cAMP HTRF, 30 min; control for the full effect not named in the record | Potency, µM (top dose mostly 76.9 µM), without a hit: top-dose activity change, negative = inhibition, actives largely listed as inhibitors | actives 0.4% (n = 340,000); active = falling curve of any shape with a large fitted effect; inconclusive = falling curve, mostly with a smaller effect; inactive = flat or rising curve; cell line not stated here;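 also: intracellular cAMP measured with PDE inhibitor Ro 20-1724 present during compound exposure; potency is read from the fitted curve at half-maximal effect; % is scaled to controls: 0 for no effect and ±100 for the full control effect; nearly all actives have a fitted effect of over 65% in size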
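HTRF cAMP read-out (cAMP-d2 plus anti-cAMP antibody-K in lysis buffer, 30 min RT). Before lysis, cells are exposed to compounds with […] for 30 min at 37C in DPBS containing Ca/Mg, BSA and Tween 20.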
Sfp inh: blocks B. subtilis Sfp PPTase activity. Potency, µM, for inactives: max response, negative = inhibition, usual class: inhibitors. Q9F4F7. actives 3.5% (n = 310,000). Biochemical Sfp PPTase activity, qHTS; active = well fitted inhibition curve with a large enough effect; inconclusive = small, poorly fitted or top-dose-only effect, or another doubt; inactive = no such curve, though single readings can be large or run the other way;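 also: the enzyme is Sfp with the accession as filed and its product quenches rhodamine fluorescence; potency is read from the fitted curve at half-maximal effect; 0% = enzyme reaction without inhibitor and -100% = no enzyme wells; top concentration of the series not given in the record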
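With Hepes-Na pH 7.6 buffer containing 10 mM MgCl2, Sfp (15 nM) modified BHQ-2-YbbR (12.5 uM) using rhodamine-CoA (5 uM). Two reads 30 minutes apart at 525/598 nm yielded each well's rate.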
gsp ag: agonists of gsp mutant (McCune-Albright syndrome); gsp mutant cells, cAMP HTRF, 30 min; control for the full effect not named in the record; Potency, µM (titrated, usually from 76.9 µM), for the others: at the top dose activation (cAMP increase), most hits filed as activators; actives 0.13% (n = 340,000); active = well fitted activation curve with a large enough effect; inconclusive = small, poorly fitted or top-dose-only effect, or another doubt; inactive = no such curve, though single readings can be large or run the other way; cell line not stated here;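 also: phosphodiesterase inhibitor Ro 20-1724 added with compounds to block cAMP breakdown; potency is read from the fitted curve at half-maximal effect; nearly all actives have a fitted effect of over 60% in size; about a fifth of the inactives were tested at one dose only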
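Cells stably selected in G418 were plated at 2000/well, grown 16-24 hr, then given compounds in DMSO with the PDE inhibitor […] (300 uM solution added) for 30 min at 37C; cAMP was read by HTRF.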
D2 potentiator: potentiates the human D2 dopamine receptor allosterically; P14416; DiscoveRx D2 beta-arrestin cells, luminescence, 90 min; 100% = 57 uM dopamine signal; potentiation, % (concentration not given with the values); actives 0.23% (n = 360,000); AID 624464; active = potentiation of 50% or more; inconclusive = 30% to 50%; inactive = 30% or less;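 also: compound concentration not given in the record; tested on top of an EC20 dose of dopamine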
Target sequence (P14416 whole entry, looked up): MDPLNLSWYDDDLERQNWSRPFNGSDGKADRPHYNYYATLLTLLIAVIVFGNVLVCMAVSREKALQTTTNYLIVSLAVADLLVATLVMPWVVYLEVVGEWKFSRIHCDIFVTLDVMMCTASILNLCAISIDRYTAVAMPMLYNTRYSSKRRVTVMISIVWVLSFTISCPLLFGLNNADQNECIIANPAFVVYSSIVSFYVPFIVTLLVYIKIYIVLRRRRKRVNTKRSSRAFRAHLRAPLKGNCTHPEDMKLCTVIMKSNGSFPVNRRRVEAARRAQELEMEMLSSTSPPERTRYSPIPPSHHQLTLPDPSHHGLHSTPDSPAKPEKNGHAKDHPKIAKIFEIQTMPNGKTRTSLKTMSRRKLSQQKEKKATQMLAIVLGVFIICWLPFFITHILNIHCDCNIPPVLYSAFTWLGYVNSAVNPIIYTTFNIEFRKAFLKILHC
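PathHunter beta-arrestin assay in DiscoveRx D2 cells. Compounds were added with an EC20 of dopamine (50 nM final) for 90 min at 37 deg C. Luminescence was read 1 h after detection reagent, with 57 uM dopamine as the EC100 control.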
Menin MLL FP FL: displaces fluorescein MLL peptide from human menin. FP activity change, % at 61.4 µM. AID 1766. 290,000 tested, under 10 active. Fluorescence polarization, fluorescein-MLL peptide displacement from menin; inconclusive = falling polarisation curve, or a change in total fluorescence; inactive = total fluorescence flat and polarisation flat or rising; no compound was filed as active; the % refers to the polarisation; negative = inhibition;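 also: % of control where 0% means no effect; inhibitors lower the polarisation; unlabelled MLL peptide was the positive control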
ClpP mod: qHTS Assay for Activators of ClpP. actives 1.9% (n = 340,000). purified B. subtilis ClpP, FRET peptide cleavage, 20 min. AID 651965, 2013. ATP-dependent Clp protease proteolytic subunit (Bacillus subtilis (strain 168)), P80244. Potency, µM (highest dose often 57.5 µM), for inactives: at the highest dose activity change, negative = active; active = well fitted falling curve with a large enough effect; inconclusive = small, poorly fitted or top-dose-only effect; inactive = no such curve, though single readings can be large or run the other way; also: potency is read from the fitted curve at half-maximal effect; the source files actives as falling curves though it sought activators and does not explain the sign; nearly all actives have a fitted effect of over 65% in size; many hits overshoot -100%
Target sequence (P80244 whole entry, looked up): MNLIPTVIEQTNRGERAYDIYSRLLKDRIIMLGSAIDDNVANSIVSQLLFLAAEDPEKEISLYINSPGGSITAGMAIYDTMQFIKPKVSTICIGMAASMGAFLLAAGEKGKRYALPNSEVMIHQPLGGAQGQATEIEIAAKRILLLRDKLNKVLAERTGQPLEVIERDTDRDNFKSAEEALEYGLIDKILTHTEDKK
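ClpP 10 microg/mL final, pH 8 Tris/KCl buffer with BSA, glycerol, Tween-20; compound pinned in; FRET-FV substrate; RT 20 min; Ex320/Em430; ΔFRET vs ADEP 5.8 microM, DMSO, no enzyme.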
TRPV1 potentiator: human TRPV1 potentiation; Q8NER1; TRPV1-expressing cells, Fluo-8 calcium influx, capsaicin EC20 potentiation; host cell line not named in the record; control for the full effect not named in the record; potentiation, % at 8.33 µM; actives 0.02% (n = 320,000); active means potentiation above 80%; inconclusive means 30% to 80%; inactive means below 30%; also: 0% is about no effect
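Fluo-8 calcium influx in TRPV1-expressing cells, kinetic read (ex 480/em 520 nm). Compound added and read 3 min for agonist activity, followed by capsaicin at EC20 final and 2 min further read for enhancement.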
Numbers without * were called inactive; & = joins results of further samples; [ ] = remark or other dose.

CCSC(=O)CCCCCCCCCCCO was read as gsp antag 4.0%, Sfp inh 6.7%, gsp ag -8.7%, D2 potentiator 14.0, Menin MLL FP FL -0.8, ClpP mod -5.2% and TRPV1 potentiator -2.7.
`CC1(C)S[C@@H]2C(C(=O)OCc3ccccc3)NC(=O)N2C1C(=O)OCc1ccccc1` (stereo partly specified) gave gsp antag -9.3%, gsp ag 17.6%, D2 potentiator -7.0 and ClpP mod 1.7%&-0.6%.
For CCOc1cc(S(=O)(=O)n2nc(C)cc2C)ccc1Br the results were gsp antag -10.9%, Sfp inh 5.7%, gsp ag 17.2%[15.4 µM], D2 potentiator -6.4, Menin MLL FP FL -1.2 and TRPV1 potentiator 4.7.
For COC(=O)c1[nH]c2cccc(OC)c2c1NC(=O)CN1CC2(C)CC1CC(C)(C)C2 (stereo unspecified) the results were gsp antag 2.8%, Sfp inh 12.4%, gsp ag 0.6%, D2 potentiator -5.1, Menin MLL FP FL -2.2, ClpP mod -11.4% and TRPV1 potentiator -8.2.
For Cc1ccccc1Cn1nc(C)c(NC(=O)C2c3ccccc3Oc3ccccc32)c1C the results were gsp antag -26.6%, Sfp inh 10.3%, gsp ag 14.9%[15.4 µM], D2 potentiator -6.8, Menin MLL FP FL 1.4, ClpP mod 2.1% and TRPV1 potentiator -0.3.
`O=C(O)c1ccc(Cl)c(S(=O)(=O)Nc2ccc(S(=O)(=O)N3CCCC3)cc2)c1` gave gsp antag 0.5%, gsp ag 7.3%, D2 potentiator 2.1 and ClpP mod -2.2%.
COc1ccc(/C=C\C(=O)c2c(O)ccc3c(C)cc(=O)oc23)cc1 was read as gsp antag -2.7%, Sfp inh inconclusive, gsp ag -26.3%, D2 potentiator -5.3, Menin MLL FP FL 2.0, ClpP mod -1.1% and TRPV1 potentiator 4.3.
Screening CCc1ccccc1N(CC(=O)NC1CCCCC1)C(=O)CNC(=O)c1ccco1 returned gsp antag -12.2%, Sfp inh 6.6%, gsp ag 9.8%[15.4 µM], D2 potentiator -9.0, Menin MLL FP FL -4.2, ClpP mod 0.8% and TRPV1 potentiator 20.3.
CC(C)(C)NC(=O)c1ccc2c(c1)N(CC(=O)N1CCN(c3ccccc3F)CC1)C(=O)C(C)(C)O2 was read as gsp antag 0.2%, Sfp inh -8.8%, gsp ag -28.4%, D2 potentiator -14.4, Menin MLL FP FL 3.6, ClpP mod -0.6% and TRPV1 potentiator 8.8.
Screening CCc1cc(-c2n[nH]c(=S)n2Cc2ccccc2)cs1 returned gsp antag -5.5%, Sfp inh -23.6%, gsp ag -24.3%, D2 potentiator -31.3, Menin MLL FP FL 3.9, ClpP mod inconclusive and TRPV1 potentiator -3.6.
Screening O=C(CSc1nc2ccccc2[nH]1)c1ccco1 returned gsp antag -7.7%, Sfp inh -26.5%, gsp ag 22.1%, D2 potentiator 8.6, Menin MLL FP FL 8.4, ClpP mod -1.0% and TRPV1 potentiator -10.1.
`CCN(CC)CCNC(=O)c1cc2cc3ccc(OC)cc3nc2o1` gave gsp antag 8.9%, Sfp inh 4.8%, gsp ag inconclusive, D2 potentiator -16.0, Menin MLL FP FL 2.3, ClpP mod 4.2% and TRPV1 potentiator 3.9.
Screening Cc1ccc(N/C(N)=N/c2nc(C(F)(F)F)cc(C(F)(F)F)n2)cc1 returned gsp antag 3.2%, Sfp inh 18.4%, gsp ag -4.2%, D2 potentiator -9.6, Menin MLL FP FL 1.5, ClpP mod 0.0% and TRPV1 potentiator 5.5.
`COCCC1CCCCN1C(=O)c1cccc(OC2CCN(C3CCCC3)CC2)c1` (stereo unspecified) gave gsp antag 6.6%, Sfp inh 8.9%, gsp ag 17.4%, D2 potentiator -7.9, Menin MLL FP FL -5.9 and TRPV1 potentiator 3.1.
`N/C(=N\c1nc2ccccc2o1)NC(=O)c1ccc(Cl)cc1` gave gsp antag 7.9%, Sfp inh 6.7%, gsp ag 0.0%, D2 potentiator -1.1, Menin MLL FP FL 3.9, ClpP mod -3.0% and TRPV1 potentiator 0.0.
`COc1ccc(Cl)cc1S(=O)(=O)N1CCC(C(=O)N2CCOCC2)CC1` gave gsp antag 3.7%, Sfp inh 2.6%, gsp ag 6.6%[15.4 µM], D2 potentiator 17.5, ClpP mod -5.9% and TRPV1 potentiator -9.6.
Cc1ccc(SCCC(=O)N/N=C/c2cccnc2)cc1 was read as gsp antag 6.5%, Sfp inh 8.7%, gsp ag -3.8%, D2 potentiator -10.8, Menin MLL FP FL -4.5, ClpP mod -0.6% and TRPV1 potentiator -14.8.
O=C(CN1CCCCC1)NC(=O)NC1CCCC1 was read as gsp antag -2.5%, Sfp inh 11.4%, gsp ag 12.0%[15.4 µM], D2 potentiator -5.0, Menin MLL FP FL 4.4 and TRPV1 potentiator -2.8.
Screening CC(=O)Nc1ccc(C(=O)CSc2nnc(Cc3ccccc3)o2)cc1 returned gsp antag -10.5%, Sfp inh 7.9%, gsp ag -50.5%[inhibitor], D2 potentiator -6.6, Menin MLL FP FL 5.6, ClpP mod 0.1% and TRPV1 potentiator -26.3.
For CCN(c1ccc(OC)cc1)S(=O)(=O)c1nnc(NC(=O)c2ccco2)s1 the results were gsp antag -23.8%, Sfp inh 16.7%, gsp ag inconclusive, D2 potentiator -8.8, Menin MLL FP FL 4.4, ClpP mod -8.9% and TRPV1 potentiator 1.0.
For Cc1cccc(NC(=O)Cn2cnc3ccccc3c2=O)c1C the results were gsp antag 8.3%, Sfp inh 8.7%, gsp ag 13.8%, D2 potentiator -5.2, Menin MLL FP FL 2.0, ClpP mod -10.0% and TRPV1 potentiator -1.4.
`CCOc1nc(-c2ccc(OC)cc2)ccc1-c1noc(-c2cc(OC)c(OC)c(OC)c2)n1` gave gsp antag 5.4%, Sfp inh -2.8%, gsp ag 4.7%, D2 potentiator 12.4, Menin MLL FP FL inconclusive, ClpP mod inconclusive and TRPV1 potentiator 1.5.
CN(Cc1ccco1)S(=O)(=O)c1csc(C(N)=O)c1 was read as gsp antag 8.6%, Sfp inh 19.5%, gsp ag 2.9%, D2 potentiator -7.4, Menin MLL FP FL 1.6, ClpP mod -0.5% and TRPV1 potentiator 6.1.
For OCCn1c(CSc2nnc(-c3ccco3)n2-c2ccccc2)nc2ccc(Cl)cc21 the results were gsp antag 14.0%, Sfp inh 3.98µM*, gsp ag 3.0%, D2 potentiator 0.6, Menin MLL FP FL inconclusive, ClpP mod 0.4% and TRPV1 potentiator 3.5.
Screening COc1ccc(Nc2nc(Cl)nc(NCCO)n2)cc1 returned gsp antag 3.0%, Sfp inh 14.5%, gsp ag -37.0%[inhibitor], D2 potentiator -6.9, Menin MLL FP FL 1.5, ClpP mod -0.9% and TRPV1 potentiator -4.3.
Cc1ccc(-c2c[nH]c(=S)n2-c2ccccc2F)cc1 was read as Sfp inh -23.0%, gsp ag -5.7%[15.4 µM], D2 potentiator -1.1, Menin MLL FP FL -6.1 and TRPV1 potentiator 1.9.
For Cc1ccc(S(=O)(=O)Nc2ccccc2CNC2CCCCC2)cc1 the results were gsp antag 7.7%, Sfp inh 11.0%, gsp ag inconclusive, D2 potentiator -10.0, Menin MLL FP FL -2.5 and TRPV1 potentiator -3.9.
Screening CCn1nc(C)c(CN2CCC(n3nccc3NC(=O)c3ccc4c(c3)OCO4)CC2)c1C returned gsp antag 12.1%, Sfp inh 21.5%, gsp ag -4.6%, D2 potentiator -0.4, Menin MLL FP FL 0.5, ClpP mod -0.7% and TRPV1 potentiator -11.3.
Screening Cc1cc(S(=O)(=O)NCCN(C)C)c(C)s1 returned gsp antag 6.7%, Sfp inh 24.6%, gsp ag 4.3%, D2 potentiator -5.8, Menin MLL FP FL 5.0, ClpP mod -0.9% and TRPV1 potentiator 8.3.
`Cc1nc2cc(NC(=O)Nc3cccc4ccccc34)ccc2n1C` gave gsp antag 8.5%, Sfp inh 12.3%, gsp ag -19.8%[15.4 µM], D2 potentiator -3.8, Menin MLL FP FL 8.6 and TRPV1 potentiator -15.9.
CC(OC(=O)Cc1n[nH]c(=O)c2ccccc12)C(=O)Nc1ccccc1[N+](=O)[O-] (stereo unspecified) was read as gsp antag -1.5%, Sfp inh 10.0%, gsp ag -71.2%[inhibitor], D2 potentiator 6.3, ClpP mod -1.8% and TRPV1 potentiator 5.7.
`CCSc1nsc(NC(=O)Nc2ccccc2OC)n1` gave gsp antag -1.8%, Sfp inh 7.5%, gsp ag -3.2%[15.4 µM], D2 potentiator -10.0, Menin MLL FP FL -0.2, ClpP mod -2.4% and TRPV1 potentiator -3.5.
`O=C(C[n+]1ccc2ccccc2c1)Nc1cc(C(F)(F)F)ccc1Cl` gave gsp antag 12.0%, Sfp inh 1.5%, gsp ag 28.4%[15.4 µM], D2 potentiator -33.5, Menin MLL FP FL 2.1, ClpP mod -12.0% and TRPV1 potentiator -2.0.
COc1cc(Cl)c(S(=O)(=O)N2CCN(Cc3ccc4c(c3)OCO4)CC2)cc1Cl was read as gsp antag -9.4%, Sfp inh 3.9%, gsp ag inconclusive, D2 potentiator 0.0, Menin MLL FP FL 2.7, ClpP mod 2.5% and TRPV1 potentiator 5.5.
`Cc1ccc(-n2nnnc2CS(=O)(=O)c2ccccc2)c(C)c1` gave gsp antag -2.6%, Sfp inh 1.4%, gsp ag -2.5%[15.4 µM], D2 potentiator -5.7, Menin MLL FP FL 0.1, ClpP mod -0.3% and TRPV1 potentiator 6.2.
`NS(=O)(=O)c1cccc(NC(=O)Cn2cnc3ccccc3c2=O)c1` gave gsp antag 7.6%, Sfp inh 18.7%, gsp ag -1.4%, D2 potentiator -18.5, Menin MLL FP FL 2.9, ClpP mod -0.6% and TRPV1 potentiator 3.4.
CC(C)CNC(=O)COC(=O)CCC(=O)c1ccc(Cl)cc1 was read as gsp antag 2.9%, Sfp inh 15.6%, gsp ag 3.0%, D2 potentiator -1.5, Menin MLL FP FL 3.5, ClpP mod -0.1% and TRPV1 potentiator 10.3.

The order is random; about 5.1% have a hit in one of these screens.
